Screening results as filed in PubChem BioAssay.
ALR inh – inhibitors of human ALR sulfhydryl oxidase, primary screen, biochemical, H2O2 detection, HRP-luminol luminescence, single point; FAD-linked sulfhydryl oxidase ALR (Homo sapiens), P55789; purified ALR, DTT oxidation; inhibition, % (no concentration beside the values); 290,000 tested, 3.8% active;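 active means mean and each replicate at 75% or more; inconclusive means only one of the two met; inactive means neither met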;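 further: stock transfer was 7.5 nL into about 7.5 µL; 0% = neutral wells and 100% = wells with inactivated enzyme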
Target sequence (P55789 whole entry, looked up): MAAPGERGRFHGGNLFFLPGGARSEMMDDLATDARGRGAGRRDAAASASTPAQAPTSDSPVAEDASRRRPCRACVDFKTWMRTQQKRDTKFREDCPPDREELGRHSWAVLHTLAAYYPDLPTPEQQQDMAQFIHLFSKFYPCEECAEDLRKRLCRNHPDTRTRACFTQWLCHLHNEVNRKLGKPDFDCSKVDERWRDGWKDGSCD
Calb FLC – C. albicans growth inhibition with fluconazole, primary screen, CaCi-2 strain, Alamar Blue fluorescence. C. albicans CaCi-2 (fluconazole-resistant clinical isolate) + fluconazole, 48 h. growth inhibition, % (test concentration not listed). 300,000 tested, 0.57% active;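 active means most replicates above 75%; inconclusive means exactly half above 75%; inactive means most below 75%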;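 further: all wells also contain fluconazole at 8 µg/ml as a sub-toxic cotreatment; 0% = median of DMSO wells and 100% = median of geldanamycin control wells; wells of about 8 µL received 7.5 nL stock; the first replicate is given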
LANA-H2A inh – blockers of LANA interaction with H2A/H2B – biochemical, FP readout, HTS, primary screen; Protein LANA1 (Human herpesvirus 8 type P (isolate GK18)), Q9QR71; cell-free LANA-H2A/H2B peptide, fluorescence polarization; inhibition, % (no concentration beside the values); 320,000 tested, 0.6% active; AID 2629, 2010; in the data active means inhibition mostly above about 10%, no sharp cut-off; inactive means mostly below about 6.7%;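 further: stock transfer was 7.5 nL into about 10 µL; 0% = median of vehicle wells and 100% = median of positive control wells; one replicate is shown; the record names a cut of 25% in any replicate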
Beta2AR agonist – beta2AR agonists driving receptor internalization, primary screen, cell-based, FAP fluorogen, flow cytometry; Beta-2 adrenergic receptor (Homo sapiens), P07550; Am2.2-beta2AR cells; reference of the scale not given here; 340,000 tested, 0.43% active; AID 504454, 2011; response, % (no concentration beside the values);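 active means response above a set limit, near 3 SD of response in nonfluorescent compounds, cut at about 42% in these data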;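 further: stock transfer was 100 nL into about 11 µL; a reference agonist was the positive control; negative values mostly stem from fluorescent compounds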
Target sequence (P07550 whole entry, looked up): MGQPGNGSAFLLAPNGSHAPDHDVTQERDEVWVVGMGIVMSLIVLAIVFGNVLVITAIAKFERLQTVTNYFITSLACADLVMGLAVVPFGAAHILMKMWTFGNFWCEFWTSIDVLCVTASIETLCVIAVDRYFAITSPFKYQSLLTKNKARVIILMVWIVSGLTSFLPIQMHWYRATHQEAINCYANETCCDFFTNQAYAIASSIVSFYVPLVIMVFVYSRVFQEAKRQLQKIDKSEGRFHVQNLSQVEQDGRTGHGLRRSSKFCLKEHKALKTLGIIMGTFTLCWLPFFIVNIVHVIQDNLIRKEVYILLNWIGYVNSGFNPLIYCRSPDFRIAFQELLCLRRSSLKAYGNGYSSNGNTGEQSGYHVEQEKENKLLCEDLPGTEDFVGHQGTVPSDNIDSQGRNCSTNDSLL
RanGTP-Imp inh – inhibitors of RanGTP-importin-beta interaction, primary screen, biochemical, FRET, CFP-Ran, YFP-importin-beta, homogeneous | AID 2216, 2009 | 300,000 tested, 1.1% active | cell-free CFP-Ran/YFP-importin-beta FRET ratio | inhibition, % (concentration not given with the values) | Ran GTPase (GTP-bound) - importin-beta complex;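 active means most replicates above 15%; inconclusive means exactly half above 15%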;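 further: 0% = DMSO wells and 100% = Ran loaded with GDP instead of GTP; wells of about 40 µL received 100 nL stock; the first replicate is given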
HNF4A DNA FP – change in binding of human HNF4A to DNA, primary screen, biochemical, fluorescence polarization, FITC-DNA | activity change, % at 10 µM | AID 1224865, 2016 | 1 h | 360,000 tested, 0.3% active | Hepatocyte nuclear factor 4-alpha (Homo sapiens), P41235; in the data active means activity change above about 30%, passing the limit was not always enough;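 further: controls were the assay level and a saturating level of protein; the project sought stronger binding though the title names inhibitors; some compounds called inactive have numbers as strong as hits; positive values seem to mean higher polarization but the record does not say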
Target sequence (P41235 whole entry, looked up): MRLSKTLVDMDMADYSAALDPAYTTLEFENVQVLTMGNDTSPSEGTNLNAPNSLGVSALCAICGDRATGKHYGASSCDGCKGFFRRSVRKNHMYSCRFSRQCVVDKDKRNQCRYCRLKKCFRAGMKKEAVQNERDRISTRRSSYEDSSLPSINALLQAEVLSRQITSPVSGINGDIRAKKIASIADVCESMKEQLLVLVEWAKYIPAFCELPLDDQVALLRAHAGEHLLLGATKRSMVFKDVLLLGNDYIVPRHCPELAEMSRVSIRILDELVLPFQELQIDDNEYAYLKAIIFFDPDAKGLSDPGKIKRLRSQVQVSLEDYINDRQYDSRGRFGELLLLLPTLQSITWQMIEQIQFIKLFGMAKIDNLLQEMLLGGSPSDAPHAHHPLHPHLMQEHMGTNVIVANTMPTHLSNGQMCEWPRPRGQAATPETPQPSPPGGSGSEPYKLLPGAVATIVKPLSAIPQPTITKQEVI
Vif A3G – inhibitors of Vif binding to APOBEC3G peptide, primary screen, biochemical, TR-FRET, GST-Vif 1-94, biotin-A3G peptide, dose response retest (AID 1117319). Virion infectivity factor (Human immunodeficiency virus type 1 group M subtype B (isolate …. TR-FRET GST-Vif / biotin-A3G peptide binding; higher % means a stronger effect; test concentration not given here; strong numbers were not always called active. inhibition, %, or IC50 in µM where a hit was titrated. 260,000 tested, 0.57% active;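 active means above the screen mean plus three standard deviations and confirmed in dose response; inconclusive means results disagree or hit not tested in dose response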;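 further: Vif residues 1-94 fused to GST binding biotinylated APOBEC3G peptide 110-148; 0% = full assay without inhibitor and 100% = GST in place of GST-Vif; retest series ran down from 100 µM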
Numbers without * were called inactive; ? = inconclusive; nt = not tested or not shown; & = joins results of further samples.

SMILES	ALR inh	Calb FLC	LANA-H2A inh	Beta2AR agonist	RanGTP-Imp inh	HNF4A DNA FP	Vif A3G
CCN(CC)c1ccc(/C=C2/C(=O)NC(=O)N(Cc3ccco3)C2=O)cc1	37.6	-2.8	0.5	4.2	-1.4	2.4	?
CC(=NCCN1CCOCC1)c1c(O)n(-c2ccccc2C)c(=O)[nH]c1=O	-4.9	-21.8	0.1	-1.4	3.7	-1.7	3.9%
O=C(CNC(=O)c1ccc(Br)cc1)Nc1ccc(Br)cc1C(=O)c1ccccc1	-3.0	2.3	8.7	-12.5	?	2.9	-1.7%
Cc1ccc(CN2CCCN(Cc3ccccc3C)S2(=O)=O)cc1	-17.8	-2.6	2.4	5.7	1.0	2.1	7.4%
CC1(C)CSC(=NCc2ccccc2)N1	-13.6	-1.1	-4.3	8.0	0.3	7.0	-1.1%
c1ccc(CNc2c3c(nc4ccccc24)CCC3)cc1	16.4	29.6	-1.0	1.2	2.4	3.0	1.1%
O=C(NCC(c1cccnc1)N1CCN(c2ccccc2)CC1)Oc1ccccc1 (configuration not stated)	36.0	-8.1	-8.6	9.6	0.5	1.4	8.3%
CN1C2CCC1CC(OC(=O)c1ccc(Cl)cc1)C2 (configuration not stated)	0.1	-0.3	1.5	-0.5	3.2	2.3	-3.3%&-3.9%
c1ccc2c(c1)CSc1ccccc1C2C1=NCCN1 (configuration not stated)	0.9	6.0	-0.6	-0.2	-2.1	-1.8	nt
CCN(c1ccc(C(O)(C(=O)OC)C(F)(F)F)cc1)S(=O)(=O)c1ccc(C)cc1 (configuration not stated)	-5.8	1.4	-8.8	-1.5	-1.7	1.0	?
O=c1[nH]c(=S)n(Cc2ccc(F)cc2)c(O)c1/C=N/N1CCCCCC1	10.7	-4.1	-9.4	3.4	?	34.9	14.7%
COC(=O)C1=CO[C@@H](C)[C@@H]2CN3CC[C@@]4(C(=O)Nc5ccccc54)[C@@H]3C[C@H]12	nt	2.7	-3.8	-5.3	1.7	4.0	nt
CC(C(=O)c1c[nH]c2ccccc12)N1CCN(C(=O)c2ccco2)CC1 (configuration not stated)	-9.6	17.7	-1.8	-0.1	0.9	-1.9	-3.7%
O=C(N[C@H]1CP(=O)(Oc2ccccc2)O[C@H](COCc2ccccc2)[C@H]1O)C(Cl)(Cl)Cl (some centres not stated)	4.7	1.2	8.0	-1.5	1.6	-1.5	4.2%
CCN(CC)CCN=Cc1c(O)n(Cc2ccco2)c(=O)[nH]c1=O	-4.2	0.4	-2.2	2.6	-3.6	1.9	69.0%
Cc1nc2ccccc2c(=O)n1-n1cnnc1	-6.7	-18.6	10.4	1.4	0.4	2.6	1.4%
O=C(COC(=O)Cc1ccccc1)Nc1cc(S(=O)(=O)N2CCCCC2)ccc1Cl	-4.1	-3.1	-0.7	nt	0.7	2.4	4.0%
CN1CCN(c2ccc(C(N)=O)cc2[N+](=O)[O-])CC1	-26.3	-10.2	-0.5	-0.6	2.3	1.1	-0.2%
O=C(Nc1ccc(F)cc1)N1CC2CC(C1)c1cccc(=O)n1C2 (configuration not stated)	-3.4	-4.8	3.2	3.9	21.4*	1.4	2.7%
O=C(C(=C1N(Cc2ccc(Cl)nc2)CCN1Cc1ccc(Cl)nc1)[N+](=O)[O-])C(Cl)Cl	5.3	6.1	1.1	-4.6	0.2	0.9	-0.5%
OC(CC#CCN1CCCCCC1)(c1ccccc1)C1CCCC1 (configuration not stated)	-11.6	-8.6	-1.3	0.3	0.0	7.4	-20.3%
CCOC(=O)C1(c2ccccc2)CCN(CCC(=O)Nc2ccc(F)cc2)CC1	-9.7	nt	6.6	0.5	nt	9.4	nt
C=CCn1c(O)c(C(CC)=NCc2ccco2)c(=O)[nH]c1=O	0.8	1.9	4.8	3.0	5.9	-1.7	-3.7%
CCOC(=O)c1c(/N=C/c2c(O)n(-c3ccc(F)cc3)c(=S)[nH]c2=O)sc2c1CCCC2	-2.5	16.7	-0.7	4.0	1.4	16.0	30.4%
Cc1ccc2c(c1)C1CN(C)CCC1N2C(=O)c1ccco1 (configuration not stated)	-7.0	5.0	-1.2	-4.2	1.0	1.5	4.5%
CCC/C=N/O	6.6	nt	32.2*	3.7	nt	-4.2	nt
COc1ccc(O)c2c(=O)c3c(OC)cc4c(c3oc12)C1C=COC1O4 (configuration not stated)	-4.0	-1.8	0.1	12.1	1.8	-2.5	nt
O=C(c1cccn2c(=O)c3ccc(Cl)cc3nc12)N1CCC2(CC1)OCCO2	-2.1	-10.5	-3.4	4.7	?	-2.0	?
CCOC1=C(N2CC2)C(=O)C(OCC)=C(N2CC2)C1=O	nt	nt	nt	0.8	nt	-4.3	6.9%
Nc1cc(N2CCNCC2)c([N+](=O)[O-])cc1Cl	32.3	-0.3	5.2	-1.5	0.3	3.4	22.8%

An excerpt from above in order of count of non-hydrogen atoms, low to high:
SMILES	ALR inh	Calb FLC	LANA-H2A inh	Beta2AR agonist	RanGTP-Imp inh	HNF4A DNA FP	Vif A3G
Nc1cc(N2CCNCC2)c([N+](=O)[O-])cc1Cl	32.3	-0.3	5.2	-1.5	0.3	3.4	22.8%
CN1CCN(c2ccc(C(N)=O)cc2[N+](=O)[O-])CC1	-26.3	-10.2	-0.5	-0.6	2.3	1.1	-0.2%
CC(C(=O)c1c[nH]c2ccccc12)N1CCN(C(=O)c2ccco2)CC1 (configuration not stated)	-9.6	17.7	-1.8	-0.1	0.9	-1.9	-3.7%

Continued:
SMILES	ALR inh	Calb FLC	LANA-H2A inh	Beta2AR agonist	RanGTP-Imp inh	HNF4A DNA FP	Vif A3G
Oc1ccc(-[n+]2c(-c3ccccc3)cc(-c3ccccc3)cc2-c2ccccc2)cc1	-6.3	102.6*	-2.9	22.4	3.8	3.7	nt
COC(=O)C1=C(c2cc3ccccc3s2)C[C@@H]2CC[C@H]1N2C(=O)NCc1ccccc1	-1.1	-5.3	2.8	18.9	?	3.5	nt
O=C1NC(=O)N(c2ccccc2)C(=O)/C1=C\c1ccc2c3c(cccc13)CC2	nt	0.8	-0.8	nt	1.1	nt	25.7%
CN1C(=O)CN=C(c2ccccc2Cl)c2cc(Br)ccc21	-0.2	16.5	4.4	-3.6	0.5	-4.0	nt
Cc1cc(OCC(=O)N2CCC(C(N)=O)CC2)c2c3c(c(=O)oc2c1)CCCC3	-3.4	0.9	-1.8	-0.7	1.1	-1.2	nt
CCC(=NCCO)c1c(O)n(C2CCCCC2)c(=O)[nH]c1=O	1.7	-5.1	1.9	-2.9	0.8	0.9	-0.4%
NNCc1cccc(O)c1	0.1	-7.1	1.4	-1.8	0.0	1.1	26.9%
CCSc1nnc(C(N)Cc2ccccc2)o1 (configuration not stated)	-10.4	5.4	0.5	-2.8	-0.7	-4.3	1.0%
C=CCn1c(O)c(C(C)=Nc2cc(OC)ccc2OC)c(=O)[nH]c1=O	-21.5	-10.9	1.8	-8.4	-1.2	1.1	5.5%
CC12CCCCC1=NC(c1ccc(Br)cc1)N2O (configuration not stated)	3.9	?	-1.1	0.6	-3.3	-2.6	-4.3%
CCCCn1c(=O)c(C(=O)Nc2cnccn2)c(O)c2ccccc21	-5.5	-8.2	2.6	1.5	-0.2	-0.6	17.3%
CCOC(=O)C(O)(c1ccc(NC(=S)NC(=O)c2ccc(Cl)cc2Cl)cc1)C(F)(F)F (configuration not stated)	-0.9	49.8	-2.8	-2.0	0.1	-2.3	nt
CC(C)CC(=O)Nc1ccc(S(=O)(=O)N2CC3CC(C2)c2cccc(=O)n2C3)cc1 (configuration not stated)	4.6	5.0	2.8	1.0	-5.5	1.5	-2.5%
COc1cc(CN2CC3CC(C2)c2cccc(=O)n2C3)cc(OC)c1OC (configuration not stated)	3.8	-3.7	1.9	3.5	?	-2.3	nt
CCCC(C)C1(CC)C(=O)NC(=Nc2ccc(OC)cc2)NC1=O (configuration not stated)	nt	-16.6	-2.8	2.6	0.0	-0.4	1.8%
C=CCOC(=O)C1=C(C)OC(N)=C(C#N)[C@@]12C(=O)N(CC(N)=O)c1ccccc12	-4.5	-5.8	1.0	-5.9	-3.1	0.1	?
Nc1ccc(C2(c3ccc(N)cc3)CCCCC2)cc1	1.8	0.7	3.4	-7.4	0.1	-0.5	nt
NP(=O)(OCCCc1ccccc1)Oc1ccccc1Cl (configuration not stated)	-9.6	-4.4	0.1	-0.8	1.6	-1.7	nt
O=C(Cc1cc(=O)oc2cc(O)ccc12)NN=Cc1ccc(N(CCCl)CCCl)cc1	nt	nt	nt	3.5	nt	4.6	-1.6%
CC(C)N(CC(O)c1cccc([N+](=O)[O-])c1)C(C)C (configuration not stated)	-6.4	-0.8	3.2	9.6	-7.6	0.7	69.1%
N/C(=N\N=C\c1ccc(O)cc1O)N[N+](=O)[O-]	19.8	4.4	-1.0	0.9	3.0	-1.1	11.3%
CC(=O)O[C@@H]1CC[C@]2(C)C3CC[C@@]4(C)C(C[C@@H](O)[C@@H]4O)C3[C@@H](OC(C)=O)C[C@H]2C1 (some centres not stated)	0.5	nt	0.9	5.3	nt	1.4	-2.6%
COCCCn1c(N)c(C(=O)OC(C)COC)c2nc3ccccc3nc21 (configuration not stated)	nt	-3.3	-2.7	6.1	25.3*	1.6	-5.1%
CC1CN1P(=O)(Oc1ccc2ccccc2c1)N1CC1C (configuration not stated)	nt	nt	nt	-0.4	nt	0.2	-3.4%
CCCCn1c(=O)c(C(=O)Nc2ccccn2)c(O)c2ccccc21	-4.6	27.6	0.4	4.0	-1.3	1.0	nt
O=C1CN=C(c2ccc(Br)cc2)c2c(sc3c2CCCC3)N1CCN1CCCCC1	nt	-9.9	-2.1	1.6	?	-1.1	-1.3%
COC(=O)C[C@]1(C(=O)OC)CN(C#N)N(c2ccc(Cl)cc2)C12c1ccccc1-c1ccccc12	0.5	-6.1	-4.8	15.8	-2.2	-2.1	32.3%
Cc1ccc(CN2CCCC(C(=O)c3sccc3C)C2)o1 (configuration not stated)	4.8	11.6	-2.7	1.5	2.5	3.6	-11.0%
CC(C)(C#CCCCCC#CC(C)(C)[N+](C)(C)C)[N+](C)(C)C	-3.1	4.8	-7.5	nt	1.2	nt	nt
C[C@H]1CC[C@@H]2N(C1)C[C@H]1[C@@H]3C[C@H]4[C@@H](CC(=O)[C@H]5C[C@@H](O)CC[C@@]54C)[C@@H]3CC[C@H]1[C@]2(C)O	-5.7	6.2	1.0	-3.2	0.7	1.3	0.2%
OC1(c2ccc(F)cc2)CC2CCC(C1)N2Cc1nnnn1C1CCCC1 (configuration not stated)	-2.7	-5.8	-8.8	-0.4	0.1	4.9	-9.3%
CCCCCCn1c(O)c(C=NCCN2CCCCC2)c(=O)[nH]c1=O	-5.1	-0.2	3.4	-2.8	-5.1	5.3	-5.2%
CN(C)c1nc(-c2ccccc2)[n+](C)s1	7.6	-9.1	-4.5	1.1	?	-1.0	21.7%
c1ccc(CCCN2CCN(CCOC(c3ccccc3)c3ccccc3)CC2)cc1	nt	nt	1.6	14.3	-1.7	0.6	nt
CN(C(=O)Oc1ccc([N+](=O)[O-])cc1)c1ccccc1	-4.1	7.1	-0.2	9.0	0.7	-0.1	-2.7%
O=[N+]([O-])c1ccccc1CNCCc1c[nH]c2ccccc12	12.3	10.2	0.1	-2.4	2.1	2.0	nt
N#CC1C(C#N)C2CCC1C1C2N1c1ccccc1 (configuration not stated)	nt	nt	nt	6.6	nt	-0.5	1.1%

This is a subset, so the mix of outcomes need not match the whole.
